# Screening results as filed in PubChem.
# KCNQ2 pot = potentiators of rat KCNQ2 potassium channel | AID 2239, 2010 | Potassium voltage-gated channel subfamily KQT member 2 (Rattus norvegicus), O88943 | B-score at 10 µM | actives 0.54% (n = 310,000) | CHO-K1 KCNQ2, FluxOR thallium flux fluorescence; active compounds read high;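 active means fluorescence ratio B-score at least 3 SD of library B-scores, with initial fluorescence B-score within 3 SD, cut at about 5.3 in these data; same plate scores as AID 2156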;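 further: B-score of peak minus minimum over baseline fluorescence ratio after K+ and Tl+ stimulus; positive B-score means potentiation of KCNQ2 with more thallium influx and brighter signal; only the inactives scoring about 0 or higher are listed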
# Target sequence (O88943 whole entry, looked up): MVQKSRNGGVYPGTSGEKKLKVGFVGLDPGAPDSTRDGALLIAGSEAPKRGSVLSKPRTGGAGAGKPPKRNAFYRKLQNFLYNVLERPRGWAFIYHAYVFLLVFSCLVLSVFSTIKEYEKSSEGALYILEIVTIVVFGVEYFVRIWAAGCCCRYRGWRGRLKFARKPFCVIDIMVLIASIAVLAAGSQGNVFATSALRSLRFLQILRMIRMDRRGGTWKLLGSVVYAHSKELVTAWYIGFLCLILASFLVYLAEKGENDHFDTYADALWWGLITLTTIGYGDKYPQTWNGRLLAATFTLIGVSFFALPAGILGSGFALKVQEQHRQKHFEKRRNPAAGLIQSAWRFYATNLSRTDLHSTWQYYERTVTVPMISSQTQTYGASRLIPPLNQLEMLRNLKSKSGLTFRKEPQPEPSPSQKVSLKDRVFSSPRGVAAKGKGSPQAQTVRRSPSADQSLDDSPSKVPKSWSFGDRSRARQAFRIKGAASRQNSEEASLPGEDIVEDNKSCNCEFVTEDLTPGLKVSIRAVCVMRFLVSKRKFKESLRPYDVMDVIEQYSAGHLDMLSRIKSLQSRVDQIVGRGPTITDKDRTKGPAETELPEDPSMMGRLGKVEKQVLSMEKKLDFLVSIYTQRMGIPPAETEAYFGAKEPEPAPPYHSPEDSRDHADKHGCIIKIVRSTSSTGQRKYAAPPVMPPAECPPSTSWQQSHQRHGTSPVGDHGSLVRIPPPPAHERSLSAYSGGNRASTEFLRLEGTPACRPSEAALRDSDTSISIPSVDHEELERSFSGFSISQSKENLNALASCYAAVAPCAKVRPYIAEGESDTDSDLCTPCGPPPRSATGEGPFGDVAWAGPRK
# KCNQ2 pot baseline = second read-out of KCNQ2 pot, no call of its own (marks repeat the call); B-score; compound at 10 µM; measured here: initial fluorescence intensity artifact check;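 brightness before thallium and not channel activity; 0 = typical well and far values either way flag optical interference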
# * marks the source's active call; other numbers are inactive results. Only part of the results is shown, so the mix of outcomes need not match the whole.
SMILES	KCNQ2 pot	KCNQ2 pot baseline
CCCCc1nnc(NC(=O)c2ccc3[nH]c(=O)c(=O)[nH]c3c2)s1	0.68	-1.5
CNC(=O)NC(=O)C(C)OC(=O)c1cc2c(s1)CCCCC2 (stereo unspecified)	0.08	1.6
CN(C#N)c1nccc(-c2cccs2)n1	0.06	0.11
CCCCSc1nc(C)cc(SCC(=O)N/N=C/c2ccccc2)n1	1.4	1.9
CC(=O)Oc1ccc(NC(=O)CSc2ccccc2)cc1	0.17	0.4
CC(C)CCn1c(Br)nc2c1c(=O)n(CC(N)=O)c(=O)n2C	0.84	1
Cn1c(=O)[nH]c2c(Cl)nccc21	0.85	0.11
Cc1c(Cl)c([N+](=O)[O-])nn1CCCC(=O)NC1CCCCC1	0.79	0.07
COc1ccc(N2CCN(C(=O)c3ccc(CSc4ccccc4)cc3)CC2)cc1	2.2	-0.7
Cc1ccc2nc(Cn3cc(C(F)(F)F)ccc3=O)cc(=O)n2c1	0.69	0.24
CN1Cc2ccccc2N(CC(=O)NCc2ccccc2)C1=O	1.2	-0.27
C=CCN1C(=O)CSc2ccc(C(=O)N3CCC(C)CC3)cc21	2.3	0.6
Cn1cnnc1SCNC(=O)C(F)(F)F	0.29	-0.28
Cc1ccc(S(=O)(=O)N(C)C)cc1NC(=O)COC(=O)c1ccc2c(c1)OCCO2	0.11	-1.5
CCOc1ccccc1N(CC(=O)NCc1ccco1)C(=O)CCC(=O)Nc1nccs1	0.02	1.1
CC(=O)c1ccc(OCCCC(=O)n2nnc3ccccc32)cc1	0.68	-0.58
CC1Cc2ccccc2N1S(=O)(=O)c1cccc2nsnc12 (stereo unspecified)	0.17	-1.4
COc1cc(-c2nnc(-c3cc(OC)c(OC)c(OC)c3)o2)cc(OC)c1OC	1.4	0.13
NC(=O)C1(N2CCCCC2)CCN(Cc2nc3ccccc3c(=O)[nH]2)CC1	0.51	0.42
COc1ccc(OC)c(-c2cn(S(=O)(=O)c3ccccc3)nc2N)c1	0.35	0.12
CC(C)c1ccc(NC2CCCN(C(=O)c3ccco3)C2)cc1 (stereo unspecified)	0.73	0.69
CC1CCCCC1NC(=O)CNC(=O)c1cccs1 (stereo unspecified)	1.3	-0.55
Cc1cc(NS(=O)(=O)c2ccc(NC(=O)/C=C/c3ccc(Br)cc3)cc2)no1	0.08	1.5
COc1ccc(S(=O)(=O)Nc2nccs2)cc1OC	0.2	-0.02
COc1cc(/C=N/n2c(-c3n[nH]c4c3CCC4)n[nH]c2=S)cc(OC)c1O	0.01	0.47
O=C(NC1CC1)C1CCN(c2ccc(S(=O)(=O)N3CCOCC3)cc2Cl)CC1	0.16	0.91
COc1ccc(C(CCN2CCCC(C)C2)c2c(OC)cc(OC)c3c2OC(=O)CC3c2cc(OC)c(OC)c(OC)c2)cc1 (stereo unspecified)	1	-0.54
Cc1c(C(=O)N2CCN(CCc3ccccn3)CC2)oc2ccc(F)cc12	2	-0.79
CCOCCCNC(=S)N1C2CCC1CC(NC(=O)NC1CCCCC1)C2 (stereo unspecified)	0.53	-0.92
CCn1cnc2c1c(=O)n(Cc1cccc([N+](=O)[O-])c1)c(=O)n2Cc1ccccc1	0.22	-1.2

# The list goes on (3 carried over from the part before).
SMILES	KCNQ2 pot	KCNQ2 pot baseline
Cc1c(C(=O)N2CCN(CCc3ccccn3)CC2)oc2ccc(F)cc12	2	-0.79
CCOCCCNC(=S)N1C2CCC1CC(NC(=O)NC1CCCCC1)C2 (stereo unspecified)	0.53	-0.92
CCn1cnc2c1c(=O)n(Cc1cccc([N+](=O)[O-])c1)c(=O)n2Cc1ccccc1	0.22	-1.2
CC(=O)c1ccccc1NC(=O)c1ccc2c(c1)NC(=O)C(C)S2 (stereo unspecified)	1.1	-0.24
COc1ccc(NC(=O)CNCCC2=CCCCC2)cc1	0.14	-0.27
Clc1ccc(CSc2nnc(/C=C/c3ccccc3)o2)cc1	0.96	-0.06
COc1ccc(OCCn2c(NC(=O)c3ccco3)nc3ccccc32)cc1	0.12	0.01
CSc1ccc(Cl)c(C(=O)NCc2ccco2)c1	1.6	0.03
CC(=O)Nc1ccc2[nH]c(C)c(CC=C(Cl)Cl)c(=O)c2c1	0.02	0.01
CC(=O)N1CCN=C1SCc1ccccc1Cl	1.5	-1.8
CC1(C)Cc2c(c(=S)nc(-c3ccccc3)n2CCOCCO)CO1	0.01	0.49
Cc1cccc(N2C(=O)C(Oc3ccc(Cl)cc3Cl)C2C(=O)O)c1C (stereo unspecified)	0.25	0.01
Cc1ccccc1Cn1cc(NC(=O)c2nn(C)cc2Cl)cn1	0.41	1.6
Clc1ccc(C=NC23CN4CN(CN(C4)C2)C3)cc1	1.9	0.82
COc1ccc(N2CC(NS(=O)(=O)c3cccs3)CC2=O)cc1 (stereo unspecified)	0.06	1.2
CCC(C)(C)NC(=O)C(c1cccc(OC)c1OC)N(Cc1ccccc1)C(=O)CCC(=O)Nc1cc(C)on1 (stereo unspecified)	0.73	0
Cc1ccc(NC(=O)Cc2noc3ccccc23)nc1	0.4	-0.25
COC(=O)C1CN(S(=O)(=O)c2cc(OC)ccc2OC)CCS1 (stereo unspecified)	0.05	-0.96
Cc1ccccc1C(=O)Nc1nnc(-c2ccc(C(C)(C)C)cc2)s1	0.02	-2.2
N#Cc1nc(Cc2cccc3ccccc23)oc1NCCN1CCCCC1	1.4	2.9
Cc1nc2ccccc2n1/N=C/c1ccc([N+](=O)[O-])s1	1.3	-2.2
CCN(CC(=O)NCc1ccc(Cl)cc1)C(=O)CSc1cccc(C(F)(F)F)c1	0.81	-0.46
O=C(COC(=O)c1cccs1)NCc1ccco1	0.67	-0.16
COc1ccc(-c2[nH]ncc2/C=N\NC(=O)c2cccs2)cc1OC	0.13	0.52
CC(NC(=O)c1ccccc1N)c1ccccc1 (stereo unspecified)	2.4	-0.06
O=C(NCc1ccccc1)/C(=C/c1ccc([N+](=O)[O-])cc1)NC(=O)c1ccco1	0.33	0.02
COc1cccc(C2CC(=O)Nc3cc(OC)c(OC)c(OC)c32)c1OC (stereo unspecified)	0.05	1.3
CC(=O)Oc1ccc(N2C(=O)C3C4C=CC(C5CC45)C3C2=O)cc1[N+](=O)[O-] (stereo unspecified)	0.04	0.03
CCN(CC(=O)Nc1ccc2c(c1)OCCO2)C(=O)c1cccc(S(=O)(=O)N2CCOCC2)c1	0.98	0.62
CCOc1ccc(NC(=O)C2CCCN(S(=O)(=O)c3ccc4c(c3)CCCN4C(C)=O)C2)cc1 (stereo unspecified)	1.2	-1.2
CN(C)c1cc(Nc2cccc(O)c2)c([N+](=O)[O-])c2nonc12	1.4	-1.4
O=C1CC(c2ccccc2)c2ccc(O)cc2O1 (stereo unspecified)	1.6	0.7
COc1ccc(-c2cc(C(=O)NCCN3CCOCC3)no2)cc1OC	1.4	-0.14
CCOC(=O)c1c(CNCCN(CC)CC)n(C)c2cc(Br)c(OC)cc12	0.84	0.47
Cc1cc(C)n(/C(=C\N(C)C)C(=O)c2ccc(Cl)cc2)n1	0.13	0.64
O=C(c1ccc(S(=O)(=O)Cc2cc(F)ccc2F)c([N+](=O)[O-])c1)N1CCCCC1	1.4	-0.15
CCc1nc(SCC(=O)N2CC(=O)Nc3ccccc32)c2c(C)c(C)sc2n1	2.5	-2.7
COCCn1c(SCC(=O)Nc2cc(C)cc(C)c2)nnc1C(C)C	0.54	-0.8
COc1ccc(NC(=O)CSc2nc3nc(C)cc(C)c3c(=O)[nH]2)cc1	1.1	-1.7
Fc1ccccc1NC(=S)N1CCN(Cc2ccccc2)CC1	1.7	1.4
Cc1noc(NS(=O)(=O)c2ccc(NC(=O)CSc3nc4c(cc3C#N)CCC4)cc2)c1C	0.68	-0.05
Cc1ccc(NC(=O)CC2CCCC2)c(Br)c1	16*	0.24*
CC(=O)Nc1ccc(S(=O)(=O)Nc2nc3ccccc3nc2Nc2ccc(O)cc2)cc1	0.18	1.2
COc1ccc(NC(=S)Nc2cccc3cnccc23)cc1	2	-1.4
CCNC(=O)COc1ccc(Br)cc1Cl	1.8	0.01
CCOc1ccc(S(=O)(=O)NCc2ccccn2)cc1	0.19	0.17
CCCCN(C(=O)NC(=O)Nc1ccccc1OC)S(C)(=O)=O	1.9	-0.19
Cc1ccccc1NC(=O)c1ccc(COc2ccc3c(C)cc(=O)oc3c2)cc1	1	0.29

# The final 3 entries of the section above are carried over, then new ones follow:
SMILES	KCNQ2 pot	KCNQ2 pot baseline
CCOc1ccc(S(=O)(=O)NCc2ccccn2)cc1	0.19	0.17
CCCCN(C(=O)NC(=O)Nc1ccccc1OC)S(C)(=O)=O	1.9	-0.19
Cc1ccccc1NC(=O)c1ccc(COc2ccc3c(C)cc(=O)oc3c2)cc1	1	0.29
Cc1ccc(S(=O)(=O)N2CCN(S(=O)(=O)N3CCCCC3)CC2)cc1	0.81	0.04
CC(=O)N1CCc2cc(S(=O)(=O)CCC(=O)N3CCC(C)CC3)ccc21	0.14	-2.5
COc1ccccc1Nc1nc(N)nc(CN(C)C2CCCCC2)n1	0.26	1.1
CC/C(C)=C1\SC(N2CCOCC2)=NC1=O	0.45	-2.3
COc1ccc(N2CCN(C(=O)CNC(=O)Cn3cnc4sc(C)c(C)c4c3=O)CC2)cc1	0.11	-0.22
C/C(=N\NC(=O)Cc1c(C)[nH][nH]c1=O)c1ccc(Cl)c(Cl)c1	1	-0.1
CCN1CCN(C(=O)CN2C(=O)c3cccc4cccc2c34)CC1	0.8	0.76
CCOC(=O)c1ccc(NC(=O)CN(c2ccc(C)cc2)S(=O)(=O)c2c(C)n[nH]c2C)cc1	0.06	-0.94
NC(=O)C1CCN(C(=O)/C=C/c2cc(Br)ccc2F)CC1	0.39	0.01
CC(C)NC(=O)c1onc(CSc2ccccc2)c1C(=O)O	0.6	-0.56
COc1ccc2c(C)cc(SCC(=O)Nc3ncc(Cl)cc3Cl)nc2c1	0.13	0.15
CCn1ccnc1CN(C)Cc1nc(-c2ccc3c(c2)OCO3)no1	1.5	-0.6
Cc1ccc(N/C(N)=N/c2nc(CSc3nnc(N)s3)cc(=O)[nH]2)cc1	0.1	-0.05
COc1ccc(OC)c(/C=N/NC(=O)c2cc[n+](CC(=O)c3ccccc3)cc2)c1	1.2	-0.72
CCOC(=O)c1ccc(N=NN(C)C)cc1	1.1	-2.4
CC(C)N(C(=O)Cn1cnc2cc([N+](=O)[O-])ccc2c1=O)C(C)C	1.4	0.72
CCN(CC(=O)Nc1c(F)cccc1F)C(=O)C1=COCCO1	2.3	-0.43
Nc1ccccc1C#Cc1cnccn1	0.35	-0.97
COc1ccc(-c2ccc(S(=O)(=O)N3CCOCC3)cc2)cc1	1.6	0.01
C=CCOC(=O)C1=C(C)NC(=S)NC1c1cccs1 (stereo unspecified)	2.5	-0.3
O=c1c2ccccc2nc2n1C(CSc1ccc(F)cc1)CN2 (stereo unspecified)	0.61	2.1
Clc1cccc(Nc2nc(-c3cccnc3)cs2)c1	0.04	1.8
COC(CNC(=O)CC1C(=O)N(Cc2ccccc2)C(C)c2nc3ccccc3n21)OC (stereo unspecified)	0.01	1.9
COc1cccc(Oc2cc(Cl)nc(N)n2)c1	0.17	0.36
CC1(C)CC(=O)C2(CC3=C(CC(C)(C)CC3=O)O2)C(=O)C1	1.1	-1.5
COc1ccc(/C=C/C(=O)OCC(=O)N2CC(=O)Nc3ccccc32)cc1	1.2	-0.09
CCCCn1c(N)c(N(CCOC)C(=O)COC(=O)COc2cc(C)c(Cl)cc2C(C)C)c(=O)[nH]c1=O	0.02	-0.03
COc1cccc(OCC(O)CO)c1 (stereo unspecified)	0.43	0.25
Nn1c(SCc2ccc(Br)cc2)nnc1-c1cccnc1	0.01	0.6
CC(C)CNc1nc(N)c([N+](=O)[O-])c(NCc2ccccc2)n1	1.1	-0.18
Cc1cc(NC(=O)c2ccc3c(c2)C(=O)N(C)C3=O)no1	0.65	0.01
O=C(NCc1ccccc1F)C1CCC(=O)N(Cc2ccc(Cl)cc2)C1 (stereo unspecified)	1.9	0.08
NC(=O)c1ccccc1NC(=O)CSC1=NCCS1	0.28	-0.11
CSc1ccccc1NC(=O)Cc1ccccc1[N+](=O)[O-]	1.7	1.3
Cc1cc(OCC(=O)Nc2cnn(CCCC(=O)O)c2)ccc1[N+](=O)[O-]	0.53	0.93
O=C(CCc1nc2ccccc2c(=O)[nH]1)OCC(=O)N1CCN(S(=O)(=O)c2ccccc2)CC1	1	-1.3
CCOc1cc(N2CCOCC2)c(OCC)cc1NCC(=O)N1CCN(Cc2ccccc2)CC1	0.59	0.01
CC(C)(C)n1nc2c(c1NC(=O)c1ccc([N+](=O)[O-])cc1)CS(=O)(=O)C2	0.88	0.37
CN(CC(=O)NC1CCCCC1)S(=O)(=O)c1ccc(Br)s1	0.27	-1.5
Cc1ccnc(NC(=O)CCC(=O)N(CC(=O)NC2CCCCC2)CC2CCCO2)c1 (stereo unspecified)	1.4	-0.63
CC(=O)Nc1ccc(S(=O)(=O)NCCC(=O)OCC(=O)NNC(=O)c2ccccc2)cc1	1.5	-3.1
CC(C)CN(C(=O)COC(=O)c1ccccn1)c1c(N)n(Cc2ccccc2)c(=O)[nH]c1=O	0.37	-0.94
CC(C(=O)N1CCOCC1)(c1ccccc1)c1ccccc1	0.03	-2.1
